Screening data from PubChem BioAssay.
Bfl-1 A1 inh – caspase 3/7 activation in MEF A1-2A-BIM cells, primary screen, A1 inhibitor project, cell-based, luminescence, HTS; Caspase-Glo 3/7 luminescence, 3 h; percent of clofoctol response, vehicle zero; caspase activation, % (no concentration beside the values); hit rate 0.066% among 330,000;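 active = over half of replicate activation scores above 10%, or exactly half above 10 with the replicate mean above 10; inconclusive = replicate mean below 10 yet half the replicates above 10; inactive = over half of replicates below 10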;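 also: wells of about 30 µL received 50 nL stock; many hits fall short of the cut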
Vif A3G – inhibitors of Vif binding to APOBEC3G peptide, primary screen, biochemical, TR-FRET, GST-Vif 1-94, biotin-A3G peptide, dose response retest (AID 1117319); Virion infectivity factor (Human immunodeficiency virus type 1 group M subtype B (isolate …; TR-FRET GST-Vif / biotin-A3G peptide binding; higher % means a stronger effect; test concentration not given here; strong numbers were not always called active; inhibition, %; hits with a dose series show IC50 in µM; hit rate 0.57% among 260,000;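 active = above the screen mean plus three standard deviations and confirmed in dose response; inconclusive = results disagree or hit not tested in dose response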;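 also: Vif residues 1-94 fused to GST binding biotinylated APOBEC3G peptide 110-148; 0% = full assay without inhibitor and 100% = GST in place of GST-Vif; retest series ran down from 100 µM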
Beta cell apopt – inhibitors of cytokine-induced beta cell apoptosis, primary screen, luminescence | INS-1E cytokine-induced death, ATP luminescence, 48 h; percent of positive-control rescue, neutral wells zero | protection from apoptosis, % (concentration not given with the values) | hit rate 0.8% among 300,000;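 active = all replicates at 75% or more, or half of them and the mean; inconclusive = half reach 75% but not the mean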;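 also: 0% = cytokine-treated negative control wells and 100% = positive control rescue; higher means more ATP so stronger rescue from cytokine killing; wells of about 40 µL received 100 nL stock; the first replicate is given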
RanGTP-Impb inh – inhibitors of RanGTP-importin-beta interaction, primary screen, biochemical, FRET, CFP-Ran, YFP-importin-beta, homogeneous. hit rate 1.1% among 300,000. cell-free CFP-Ran/YFP-importin-beta FRET ratio. inhibition, % (no concentration beside the values);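 active = most replicates above 15%; inconclusive = exactly half above 15%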;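 also: 0% = DMSO wells and 100% = Ran loaded with GDP instead of GTP; wells of about 40 µL received 100 nL stock; the first replicate is given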
Ecoli rRNA inh – reduced GFP signal of wild-type E. coli, primary screen, bacterial rRNA inhibitor project, GFP/RFP fluorescence, OD600, single point; E. coli WT GFP vs humanized-ribosome RFP mutants, 24 h; stronger effect = lower value; DMSO median 0, no signal -100; GFP signal change (wild-type ribosome), % (test concentration not listed); hit rate 1.6% among 350,000; AID 720706, 2013;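 active = significant combined selectivity score with lowered wild-type GFP, culture density cut under 30%, mutant RFP and density less affected; inactive = any of these conditions unmet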; also: one replicate is shown; some compounds called inactive have numbers as strong as hits
T cruzi inh – inhibitors of intracellular T. cruzi growth, primary screen, luminescence, NIH3T3 host cells; T. cruzi beta-gal in NIH3T3, 90 h; inhibition, % (concentration not given with the values); hit rate 1.4% among 300,000;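 active = mean inhibition across valid replicates above about 55%, limit read from the data; inconclusive = mean below that limit but half or more replicates reach it; inactive = mean below it, under half of replicates reach it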;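 also: signal also drops with host cell toxicity which is not excluded here; 0% = plate median of DMSO wells and 100% = zero luminescence signal; higher percent means less beta-gal luminescence so fewer parasites; stock transfer was 50 nL into about 50 µL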
Calb FLC – C. albicans growth inhibition with fluconazole, primary screen, CaCi-2 strain, Alamar Blue fluorescence; C. albicans CaCi-2 (fluconazole-resistant clinical isolate) + fluconazole, 48 h; growth inhibition, % (test concentration not listed); hit rate 0.57% among 300,000; AID 1979, 2009;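 active = most replicates above 75%; inconclusive = exactly half above 75%; inactive = most below 75%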;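 also: all wells also contain fluconazole at 8 µg/ml as a sub-toxic cotreatment; 0% = median of DMSO wells and 100% = median of geldanamycin control wells; wells of about 8 µL received 7.5 nL stock; the first replicate is given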
AF4-AF9 inh – inhibitors of AF4 peptide binding to AF9, primary screen, biochemical, AlphaScreen, biotin-AF4 peptide, FLAG-AF9, single point; inhibition, % at 10 µM; hit rate 0.47% among 350,000; Protein AF-9 (Homo sapiens), P42568; AID 651704, 2012;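 active = every replicate reaching a set inhibition limit, whatever the replicate mean, cut at about 25% in these data; inconclusive = mean inhibition reaches that limit but some replicates miss it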;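 also: 0% = plate neutral control median and 100% = total signal loss; the record names both 10 and 1 µM as test concentration; the first replicate is given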
Target sequence (P42568 whole entry, looked up): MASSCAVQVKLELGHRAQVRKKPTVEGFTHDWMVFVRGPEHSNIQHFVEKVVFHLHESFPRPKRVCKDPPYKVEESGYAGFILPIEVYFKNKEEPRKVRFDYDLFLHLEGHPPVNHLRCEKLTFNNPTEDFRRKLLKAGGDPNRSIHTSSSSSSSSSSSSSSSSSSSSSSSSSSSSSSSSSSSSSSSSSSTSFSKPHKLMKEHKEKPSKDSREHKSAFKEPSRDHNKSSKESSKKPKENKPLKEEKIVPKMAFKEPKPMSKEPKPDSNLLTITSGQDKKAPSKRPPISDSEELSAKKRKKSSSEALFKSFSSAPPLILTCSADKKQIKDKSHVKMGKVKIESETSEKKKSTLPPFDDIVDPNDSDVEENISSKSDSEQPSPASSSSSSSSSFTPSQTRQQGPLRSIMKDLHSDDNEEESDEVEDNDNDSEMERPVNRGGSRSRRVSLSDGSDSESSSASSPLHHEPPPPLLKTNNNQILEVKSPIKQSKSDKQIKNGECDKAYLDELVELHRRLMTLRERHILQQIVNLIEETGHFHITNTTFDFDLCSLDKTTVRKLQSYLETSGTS
Ecoli rRNA inh OD600 – further read-out of Ecoli rRNA inh, marked with its call; OD600 change, %; measured here: OD600 growth;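 optical density of the mix in the first replicate; 0 = DMSO median and -100 = no signal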
Ecoli rRNA inh RFP – recorded beside Ecoli rRNA inh, whose call it bears; RFP signal change, %; measured here: RFP humanized mutant strains;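 first replicate; 0 = DMSO median and -100 = no signal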
The depositor's hits bear a star; ? = inconclusive; / = no result given. Some of the compounds tested; rates above refer to the full screens.

SMILES	Bfl-1 A1 inh	Vif A3G	Beta cell apopt	RanGTP-Impb inh	Ecoli rRNA inh	Ecoli rRNA inh OD600	Ecoli rRNA inh RFP	T cruzi inh	Calb FLC	AF4-AF9 inh
COc1ccc(S(=O)(=O)N2CCN(C/C=C/c3ccccc3)CC2)cc1F	0.3	/	0	4.1	-5	-24	-0.5	5	7	9.1
CC(=O)c1ccc(OCc2cc(C(=O)N(C)C(C)c3ccon3)no2)cc1 (stereo unspecified)	0.4	/	4	-2.4	-7	-5	2.0	1	7	-1.6
Cc1nc(N2CCN(C)CC2)c2sc(=S)n(-c3ccccc3)c2n1	0.1	2%	1	-4.1	2	-5	0.6	36	-4	1.9
Cc1ccc(C(C)NC(=O)c2cc3ccccc3oc2=O)cc1C (stereo unspecified)	-0.1	/	/	0.7	2	3	-1.0	4	-12	-2.0
CCOC(=O)C1(C)C=C(Nc2ccc(OC)cc2)C(=O)N1c1ccc(OC)cc1 (stereo unspecified)	0.4	/	-7	-1.2	/	/	/	-11	6	/
C=CCC(C#Cc1ccccc1)[N+](C)(C)CC=C (stereo unspecified)	0.8	?	4	0.8	/	/	/	-10	-4	/
Cc1ccc(C)c(C(=O)CSc2n[nH]c(C)n2)c1	0.4	-1%	-6	6.8	/	/	/	-3	-10	/
Cc1ccc(NC(=O)C(=O)NCCOc2ccc(Cl)cc2)c(C)c1	-0.4	-4%	/	-3.6	/	/	/	-14	-3	/
O=C(NCCN1CCOCC1)c1ccc(/C=C2\Sc3ccccc3N(Cc3ccccc3F)C2=O)cc1	-1.2	/	-2	9.8	-16	-44	13	-2	19	7.5
CCN1CCN(Cc2ccc(NC(=O)Nc3cccs3)cc2)CC1	-0.1	14%	3	2.9	/	/	/	2	-22	/
S=c1nc(-c2ccc(Br)cc2)oc2c1CCCC2	-0.8	62µM*	2	5.0	/	/	/	-7	-5	/
Cc1ccc(S(=O)(=O)/C(C#N)=C/c2c(Oc3ccc(Cl)cc3)nc3c(C)cccn3c2=O)cc1	1.1	-1%	1	8.8	/	/	/	3	?	/
O=C(c1ccc(F)cc1)C1CCN(C(=O)Nc2ccc(F)cc2)CC1	0.1	0%	-2	-4.5	/	/	/	-23	-12	/
COc1ccc(-n2nc3c(c2NC(=O)COc2ccccc2F)CS(=O)(=O)C3)cc1	-0.6	/	-4	-2.9	0	1	0.0	5	2	0.5
Nc1c(Cl)ncnc1N1CCOCC1	0.3	1%	0	-0.1	/	/	/	-2	?	/
CC(C)OCCCNS(=O)(=O)c1ccc2ccccc2c1	0.3	2%	-7	1.2	/	/	/	-3	-3	/
COc1ccc(C(=O)CSc2nnc(CNC(=O)c3ccccc3)n2C)cc1	-0.4	/	-2	?	18	22	5.4	1	-10	-0.7
COc1ccc(OC)c(NC(=O)NCCc2c[nH]c3ccccc23)c1	1.0	-5%	2	-2.0	0	-3	-2.2	1	7	9.0
CCC(C(=O)N1CCCCCC1)n1nc(C)n2c(cc3occc32)c1=O (stereo unspecified)	0.8	/	-3	4.6	0	0	-3.8	1	15	0.1
Cc1ccc(Cc2nc3ccccc3[nH]2)cc1	-0.6	-3%	-1	-15	-7	-16	9.4	-2	-12	1.2
CN(C(=O)COC(=O)/C=C/c1cccc([N+](=O)[O-])c1)C1CCS(=O)(=O)C1 (stereo unspecified)	0.4	/	-4	5.0	11	5	-3.5	-1	4	1.1
Cc1nnc(NC(=O)CSc2ccc3nnc(-c4ccccn4)n3n2)s1	-0.2	/	-4	0.0	7	8	2.3	-2	-8	0.8
COc1ccc(C(=O)NC2CCN(C(=S)Nc3ccc(C)c(C)c3)CC2)cc1	0.2	5%	-1	-3.1	7	1	-2.4	-26	22	-1.0
CCOc1ccc(C(=O)Nc2ccc(-c3cc4ccccc4oc3=O)c(C)c2)cc1[N+](=O)[O-]	0.4	/	-3	0.1	8	7	1.6	29	-25	-1.1
CN1CCc2c(sc(NC(=O)C3COc4ccccc4O3)c2C(N)=O)C1 (stereo unspecified)	0.0	-10%	/	182*	9	6	5.9	4	-3	0.2

Arranged by heavy-atom count (rising): 4 of the compounds above.
SMILES	Bfl-1 A1 inh	Vif A3G	Beta cell apopt	RanGTP-Impb inh	Ecoli rRNA inh	Ecoli rRNA inh OD600	Ecoli rRNA inh RFP	T cruzi inh	Calb FLC	AF4-AF9 inh
Cc1ccc(C)c(C(=O)CSc2n[nH]c(C)n2)c1	0.4	-1%	-6	6.8	/	/	/	-3	-10	/
O=C(c1ccc(F)cc1)C1CCN(C(=O)Nc2ccc(F)cc2)CC1	0.1	0%	-2	-4.5	/	/	/	-23	-12	/
Cc1nnc(NC(=O)CSc2ccc3nnc(-c4ccccn4)n3n2)s1	-0.2	/	-4	0.0	7	8	2.3	-2	-8	0.8
CCOC(=O)C1(C)C=C(Nc2ccc(OC)cc2)C(=O)N1c1ccc(OC)cc1 (stereo unspecified)	0.4	/	-7	-1.2	/	/	/	-11	6	/

The main list resumes, starting three compounds before the break.
SMILES	Bfl-1 A1 inh	Vif A3G	Beta cell apopt	RanGTP-Impb inh	Ecoli rRNA inh	Ecoli rRNA inh OD600	Ecoli rRNA inh RFP	T cruzi inh	Calb FLC	AF4-AF9 inh
COc1ccc(C(=O)NC2CCN(C(=S)Nc3ccc(C)c(C)c3)CC2)cc1	0.2	5%	-1	-3.1	7	1	-2.4	-26	22	-1.0
CCOc1ccc(C(=O)Nc2ccc(-c3cc4ccccc4oc3=O)c(C)c2)cc1[N+](=O)[O-]	0.4	/	-3	0.1	8	7	1.6	29	-25	-1.1
CN1CCc2c(sc(NC(=O)C3COc4ccccc4O3)c2C(N)=O)C1 (stereo unspecified)	0.0	-10%	/	182*	9	6	5.9	4	-3	0.2
CCCc1cc(=O)[nH]c(SCC(=O)N2C(C)CCCC2C)n1 (stereo unspecified)	0.6	/	-2	-1.4	-1	-6	-0.1	2	-2	4.7
O=C(CCN1CCN(c2ccccc2)CC1)N/N=C/c1ccccc1OC(F)F	-0.4	/	-5	1.0	0	4	3.5	-6	1	-1.1
CCOC(=O)c1sc(N)c(C(=O)Nc2ccccc2OC)c1C	-0.8	0%	15	-2.6	3	-4	3.6	1	16	-3.2
CSc1nc2ccc(NC(=O)c3cc4ccccc4o3)cc2s1	-7.7	-45%	-1	2.3	-9	1	-1.1	-8	4	-2.7
CCCCN(C(=O)C1COc2ccccc2O1)c1c(N)n(CCC)c(=O)[nH]c1=O (stereo unspecified)	-0.4	/	3	/	2	3	-3.6	/	/	-12
Cn1nnnc1SCC(=O)NC(=O)c1cccc([N+](=O)[O-])c1	-0.2	3%	-2	-1.7	8	5	-7.2	-12	-1	3.3
Nc1nccc(-c2cc(-c3ccc(Cl)cc3Cl)no2)n1	-6.5	-6%	1	-2.8	9	-1	-1.4	3	8	3.1
CNC(=S)N(CCc1ccc(S(N)(=O)=O)cc1)C1CC(=O)N(c2ccccc2F)C1=O (stereo unspecified)	0.4	13%	-2	-2.3	2	-6	-1.5	-22	-13	1.6
Fc1ccccc1C(c1nnnn1Cc1ccc2c(c1)OCO2)N1CCN(Cc2ccccc2)CC1 (stereo unspecified)	0.3	0%	6	-2.8	/	/	/	7	-2	/
CCOc1ccc(C(C(=O)NCC2CCCO2)N(C(=O)c2snc(C(N)=O)c2N)c2ccc(F)cc2)cc1 (stereo unspecified)	0.4	0%	4	-1.2	-7	-1	-2.9	6	24	-1.2
Cc1ccc(N2C(=O)C(NC(=O)c3ccccc3F)(C(F)(F)F)C3=C2CC(C)(C)CC3=O)cc1 (stereo unspecified)	0.2	-8%	-1	0.5	7	3	1.0	7	-14	2.0
CCOC(=O)N1CCN(S(=O)(=O)c2cc(OCC)ccc2OCC)CC1	1.1	23%	2	-0.2	/	/	/	1	2	/
Cc1cc(NC(=O)c2ccc(Cl)c(S(=O)(=O)N3CCCCC3)c2)no1	0.3	/	-2	0.1	9	4	0.0	-20	-9	-2.6
Cn1c(=O)c2c(nc(CN3CCN(CCO)CC3)n2Cc2cccc3ccccc23)n(C)c1=O	0.3	2%	-10	1.0	/	/	/	-24	-12	/
Cc1ccn2c(=O)nc(SCC(=O)OCc3ccccc3)nc2c1	0.1	2%	2	7.4	-2	2	-2.5	8	4	-19
Cc1cccc(NC(=S)N/N=C/c2cccc(O)c2)c1C	0.0	6%	2	0.0	-24*	-17*	-6.0*	2	8	0.6
CCOc1cc(/C=C2\SC(=O)N(c3ccc(O)cc3)C2=O)ccc1O	-1.6	?	5	0.1	-48	-66	-21	-12	25	/
Cc1ccc(N=C(N)N=C(N)N)c(C)c1	0.5	-2%	-10	3.3	10	4	2.0	-11	5	0.6
CC(C)C1Oc2ccccc2N(CC(=O)N(Cc2ccccn2)CC2CCCO2)C1=O (stereo unspecified)	0.6	1%	5	1.8	/	/	/	-8	3	/
CCN(CC)CCN1C(=O)C(O)=C(C(=O)c2ccc(C)o2)C1c1ccccn1 (stereo unspecified)	0.8	/	-9	29*	/	/	/	-1	/	/
CC(=O)N1C(O)CC(C)N1c1ccccc1 (stereo unspecified)	0.3	-6%	/	3.9	/	/	/	-28	-22	/
COC(=O)c1c(-c2ccc(C)cc2)csc1NC(=S)NC(=O)c1cc(OC)cc(OC)c1	0.4	13%	7	2.1	/	/	/	18	-3	/
Cc1cccc(CNC(=O)C2CCC(=O)N(CCc3cccc(F)c3)C2)n1 (stereo unspecified)	/	/	/	-3.9	4	9	-0.2	1	-5	-1.1
COC(=O)c1ccc(NC(=S)NC2CC(C)(C)NC(C)(C)C2)cc1	1.1	-2%	-8	3.2	/	/	/	-7	-11	/
O=C(OCc1ccc(Cl)cc1Cl)c1ccncc1	0.0	4%	-5	?	/	/	/	-10	-8	/
COc1ccc(/C=N/Nc2cc(C)nc3c(C)cccc23)cc1	0.3	/	47	?	-51	-73	2.0	74*	-20	14
CCN(C(=O)Cn1c(=O)oc2ccccc21)c1ccc(C)c(C)c1	0.7	-2%	0	-0.5	-4	-6	0.0	6	5	0.9
O=C(Nc1ccccc1N1CCOCC1)c1ccc2nc[nH]c2c1	/	-1%	/	5.2	-6	-6	-1.7	-13	-9	0.4
CC(=O)CCSc1nnc(-c2cccc(S(=O)(=O)N3CCOCC3)c2)o1	0.4	-7%	-1	?	1	2	-0.6	15	-5	-2.3
COC(=O)c1ccc(C(=O)OC)c(NC(=S)N2CCN(c3cc(Cl)ccc3C)CC2)c1	1.1	-9%	-7	6.9	/	/	/	13	3	/
